HTT prom inh: inhibits huntingtin promoter activity. Potency, µM (series often up to 57.5 µM), for inactives: top-dose activity change, negative = inhibition, hits mostly inhibitors. 48,000 tested, 0.93% active. HEK293 HTT promoter firefly luciferase reporter (activity 0% = vehicle and -100% = no light), 24 h; active = well fitted inhibition curve with a large enough effect; inconclusive = small, poorly fitted or top-dose-only effect; inactive = no such curve, though single readings can be large or run the other way; note: nearly all actives have a fitted effect of over 50% in size
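Firefly luciferase signal from promoter-reporter HEK293 cells was scaled between vehicle (0%) and zero RLU (-100%). Compounds were tested at final concentrations of up to 57.5 uM over 24 h at 37 degrees C. PTC124 at 50 uM final served as control inhibitor.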
PMP22 txn prim: PMP22 gene transcription modulation | S16 Pmp22-F2sN Schwann cells (luciferase reporters placed in the Pmp22 gene), FLuc/NLuc coincidence luminescence, 24 h | Potency, µM (series often up to 57.5 µM), for inactives: at the highest dose activity change, negative = inhibition, usual class: inhibitors | 43,000 tested, 2% active | AID 1508649; active = clear falling dose curves in both reporters; inconclusive = both reporters move, but less clearly or upward; inactive = either reporter flat; the % is the NLuc reporter signal; note: % is set by controls: 0 for no effect and ±100 for the full control effect; some results filed as inactive show a strong effect at the top dose
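Transcriptional readout in edited S16(c9) cells: two luciferases reported from the Pmp22 locus, measured in turn after 24 h compound incubation.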
* = called active by the depositor; ? = inconclusive; / = not tested or not shown. Potency is the fitted concentration of half-maximal effect.

SMILES	HTT prom inh	PMP22 txn prim
COc1ccccc1CNC(=O)CN1C(=O)CCn2nc(-c3ccccc3)cc21	-21%	-7%
COc1ccccc1N1CCN(CCCNC(=O)Cn2ncc3c([nH]c4ccccc43)c2=O)CC1	6%	?
CC(=O)Nc1ccc2nc(SCCOc3ccccc3)sc2c1	14%	?
CCOC(=O)c1c(C)[nH]c(C)c1S(=O)(=O)NCC(=O)Nc1cc(C)ccc1OC	-5%	12%
CCc1ccc(NC(=O)c2ccc(F)c(S(=O)(=O)N3CCC4(CC3)OCCO4)c2)cc1	16µM*	?
COc1ccc(/C=C/C(=O)Nc2ccc(Cl)c(Cl)c2)cc1OC	15%	?
CC(=O)c1cccc(NC(=O)CCCSc2nc(-c3ccco3)cc(C(F)(F)F)n2)c1	-27%	?
CCCCC(CC)CNC(=O)CCCCn1c(=O)[nH]c2ccsc2c1=O (stereo not drawn)	-7%	-26%
CCc1ccc(Sc2cc(C(=O)NC(C)CC)c3ccccc3n2)cc1 (stereo not drawn)	-27%	-15%
CCCn1cc(S(=O)(=O)c2ccc(CC)cc2)c(=O)c2ccccc21	?	8%
COc1ccccc1-c1nnc(C2CCN(C(=O)c3ccc(C)cc3)CC2)o1	-15%	8%
CCC(=O)N1c2ccc(S(=O)(=O)CCC(=O)NCc3cccc(OC)c3)cc2CC1C (stereo not drawn)	0%	-14%
COc1cccc(-c2cc(C(=O)Nc3cnn(Cc4ccc(Cl)cc4Cl)c3)no2)c1	-29%	?
CCOc1ccc(NC(=O)NCCCN2CCN(c3ccc(F)cc3)CC2)cc1	1%	?
Cn1nc(C(=O)NCc2ccc(F)cc2)c2c1-c1ccccc1SC2	-15%	-24%
CCCN(C(=O)c1cc2c(=O)n(CC)c3ccccc3c2s1)c1ccccc1F	11%	7.6µM*
O=C(NC1CC(=O)N(c2ccc(F)cc2)C1)C1CCCC1 (stereo not drawn)	1%	32%
CCCN(CCC)CCCNC(=O)c1sc2nc3n(c(=O)c2c1C)CCC3	3%	-15%
Cc1cc(C)cc(NC(=O)N2CCC(CN3CCCCCC3)CC2)c1	-11%	-4%
Cc1nn(-c2ccccc2)c2sc(C(=O)Nc3cccc(Cl)c3)cc12	?	?
COc1cc(C(=O)Nc2cc3c(cc2C)n(C)c(=O)c(=O)n3C)cc(OC)c1OC	6%	-20%
CCCNC(=O)Cn1nc(-c2ccc(C)c(C)c2)c2cnc3ccc(OC)cc3c21	-12%	?
Cn1cc(S(=O)(=O)N2CCCCCC2)cc1C(=O)N1CCN(c2cccc(C(F)(F)F)c2)CC1	?	?
COc1ccccc1N1CCN(c2ccc(=O)n(CC(=O)NCc3ccc(F)cc3)n2)CC1	-1%	-6%
COc1ccc(C(=O)N2CC(=O)Nc3ccc(F)cc3C2c2ccc(F)cc2)c(OC)c1 (stereo not drawn)	-33%	12%
Cc1cc(NC(=O)c2ccc3c(c2)OCCO3)cc(-c2nc3ccccc3o2)c1O	-11%	?
COc1ccc(CNC(=O)CC(C)CC2=NS(=O)(=O)c3ccccc3N2)cc1 (stereo not drawn)	?	?
Cc1ccc(Cl)cc1NC(=O)CN1C(=O)COc2ccc(S(=O)(=O)N3CCOCC3)cc21	-17%	-4%
CCc1cnc2c(c1SCC(=O)c1ccccc1)c(=O)n(C)c(=O)n2C	-14%	?
O=C(CSc1oc(-c2cccs2)nc1S(=O)(=O)c1ccccc1)Nc1ccc(F)cc1	?	-11%
COc1ccc(N2CCN(S(=O)(=O)c3csc(C(N)=O)c3)CC2)cc1	-22%	-2%
CCOc1ccc(CN2C(=O)c3ccccc3Sc3ccc(C(=O)NCCCN4CCOCC4)cc32)cc1	?	?
COc1ccc(CC(=O)Nc2ccc3nc(Nc4ccc(OC)cc4)cc(C)c3c2)cc1	?	?
O=C1OC(OC(=O)c2cccnc2Nc2cccc(C(F)(F)F)c2)c2ccccc21 (stereo not drawn)	-5%	/
CCOC(=O)C1CCN(c2csc3ccc(C)cc3c2=O)CC1	-10%	-11%
COc1ccc(NC(=O)CSc2nc(-c3cccs3)cc(C(F)(F)F)n2)c(OC)c1	?	-20%
COc1ccc(NC(=O)Cn2c(=O)cc(C)c3c(C)nn(-c4cccc(Cl)c4C)c32)cc1OC	-19%	?
CC(C)Oc1ccc(CNC(=O)CCCN2C(=O)c3cccnc3Oc3ccc(Cl)cc32)cc1	-16%	?
COc1ccc(OC)c(-c2noc(N3CCN(c4cc(C)ccc4C)CC3)n2)c1	?	1%
CCOC(=O)c1ccc(Nc2nc3ccccc3n3c(C)nnc23)cc1	3%	-18%
NC(=O)c1c(NC(=O)c2cc(-c3ccc(F)cc3)on2)sc2c1CCCC2	-2%	5%
CCC1(C)Cc2c(sc3nc(SC)n(-c4ccc(C)cc4)c(=O)c23)CO1 (stereo not drawn)	-16%	-1%
Cc1cccc(CNC(=O)CN2C(=O)CCn3nc(-c4cn(C)c5ccccc45)cc32)c1	-16%	17%
COc1ccc(NC(=O)Cn2c(CCC(=O)O)ccc2-c2ccccc2)cc1Cl	-13%	7%
O=C(O)CC1c2ccccc2CCN1C(=O)Nc1cc(Cl)ccc1Cl (stereo not drawn)	-21%	-36%

Fetched one by one from the entries so far, 6 records:
SMILES	HTT prom inh	PMP22 txn prim
CCOC(=O)C1CCN(c2csc3ccc(C)cc3c2=O)CC1	-10%	-11%
CCOc1ccc(CN2C(=O)c3ccccc3Sc3ccc(C(=O)NCCCN4CCOCC4)cc32)cc1	?	?
COc1ccc(CC(=O)Nc2ccc3nc(Nc4ccc(OC)cc4)cc(C)c3c2)cc1	?	?
COc1ccc(OC)c(-c2noc(N3CCN(c4cc(C)ccc4C)CC3)n2)c1	?	1%
COc1ccc(NC(=O)CSc2nc(-c3cccs3)cc(C(F)(F)F)n2)c(OC)c1	?	-20%
NC(=O)c1c(NC(=O)c2cc(-c3ccc(F)cc3)on2)sc2c1CCCC2	-2%	5%

Next part.
SMILES	HTT prom inh	PMP22 txn prim
Cc1ccc(S(=O)(=O)c2nnn3c2nc(NCc2ccccc2)c2sccc23)cc1	-31%	?
Cc1ccc2c(c1)N(C(=O)N1CCC(C(=O)NCc3cccs3)CC1)CC(C)O2 (stereo not drawn)	?	-4%
COc1ccc(-c2cnnn2-c2ccc(NC(=O)c3ccc(S(=O)(=O)N(C)C)cc3)cc2)cc1	?	?
Cc1ccn2c(=O)c(C(=O)Nc3ccc(F)c(C(F)(F)F)c3)cnc2c1	0%	6%
CCOc1cc(CNC(=O)c2cc(-c3ccc(Cl)s3)nc3ccccc23)ccc1OC	-3%	?
COc1ccc(-n2ccnc(NCc3cccs3)c2=O)cc1	-16%	?
CCOc1ccc(NC(=O)c2sc(-n3nc(C)c(CCC(C)C)c3C)nc2C)cc1	-18%	-17%
Cc1cc(C(=O)NCc2ccccc2)c2c(C)nn(-c3cccc(Cl)c3C)c2n1	-9%	-9%
CCOc1ccc(C2C(C(N)=O)=C(C)Nc3nc(-c4cccc(Cl)c4)nn32)cc1OC (stereo not drawn)	-29%	4%
Cn1cc(-c2cc3n(n2)CCC(=O)N3CC(=O)NCc2ccccc2)c2ccccc21	-16%	?
COc1cc(NC(=O)CCCN2C(=O)CCn3nc(-c4cn(C)c5ccccc45)cc32)cc(OC)c1	-22%	?
CCOC(=O)c1cccc(NC(=O)c2ccc3nc(Cc4ccccc4)oc3c2)c1	?	?
COC(=O)c1ccccc1NC(=O)CCc1c(C)nc2cc(-c3ccc(Cl)cc3)nn2c1C	?	-1%
O=C(O)CCc1ccc(-c2ccccc2)n1-c1ccc(C(=O)O)cc1	-16%	-1%
Cc1ccccc1Nc1c2c(nc3nncn13)CCC2	-23%	-10%
COc1ccc(C)cc1S(=O)(=O)NCC(c1ccc(N(C)C)cc1)N1CCc2ccccc21 (stereo not drawn)	-29%	?
Cc1ccccc1Nc1c(-c2c[nH]c3ccccc23)nc2cccc(C)n12	22%	-5%
CCOc1ccc(NC(=O)c2cc(S(=O)(=O)N3CCOCC3)ccc2F)cc1	?	23%
Cc1cc(C)c2nc(N(Cc3cccnc3)C(=O)c3cccs3)sc2c1	?	-12%
CC1(C(=O)Nc2cccc(C(F)(F)F)c2)Cc2ccccc2C(=O)O1 (stereo not drawn)	-22%	-23%
O=C(Nc1cc(-c2nc3ccccc3o2)ccc1Cl)c1cccc2c(Cl)cccc12	8%	-12%
CCOC(=O)Cn1c(-c2cccs2)cc2cc(Cl)ccc21	-21%	4%
C[C@H](NC(=O)Cc1cc(F)cc(F)c1)C(=O)N[C@H](C(=O)OC(C)(C)C)c1ccccc1	-8%	/
CCOC(=O)C(Cc1c[nH]c2ccccc12)NC(=O)COc1ccc(Cl)c(C)c1 (stereo not drawn)	-9%	-30%
COc1ccccc1-c1cc(C(F)(F)F)nc(S(=O)(=O)CCCC(=O)Nc2ccccc2F)n1	?	8.9µM*
CCOc1ccc(CCNC(=O)c2sc3nc4n(c(=O)c3c2C)CCCC4)cc1OCC	-10%	-27%
N#Cc1ccccc1NC(=O)C(=O)NCC(c1cccnc1)N1CCN(c2ccccc2)CC1 (stereo not drawn)	-28%	-4%
Cc1ccsc1CN(C(=O)c1oc2cc(Br)ccc2c1C)C1CCS(=O)(=O)C1 (stereo not drawn)	?	?
COc1ccc(-c2nc3c(c(SCc4ccc(Br)cc4)n2)Cc2c(CO)cnc(C)c2O3)cc1	-10%	-5%
COc1ccc(-n2c(-c3ccc(Cl)cc3)cc3c2CC(C)(C)CC3=O)c(OC)c1	?	?

Some of the entries so far, with two lines to a compound.
Value order – HTT prom inh	PMP22 txn prim
- Cc1ccsc1CN(C(=O)c1oc2cc(Br)ccc2c1C)C1CCS(=O)(=O)C1 (stereo not drawn)
 : ?	?
- COc1ccc(-c2nc3c(c(SCc4ccc(Br)cc4)n2)Cc2c(CO)cnc(C)c2O3)cc1
 : -10%	-5%

Following part.
SMILES	HTT prom inh	PMP22 txn prim
COc1cccc(NC(=O)CSc2nc3ccccc3n2C)c1	13%	12%
O=S(=O)(NCc1ccccc1Cl)c1ccc(-c2cnc(C3CC3)o2)cc1	?	?
CC(C)c1ccc(CN(Cc2ccco2)c2cnc(S(C)(=O)=O)nc2C(=O)Nc2ccccc2)cc1	?	?
CCCCc1ccc(NC(=O)c2cc3c(=O)n4ccccc4nc3s2)cc1	1%	-10%
CCOc1ccc(NC(=O)CSC2=Nc3ccccc3C3=NC(CCC(=O)NCc4cccs4)C(=O)N23)cc1 (stereo not drawn)	-1%	2%
CCN(CC)C(=O)c1ccc(Nc2nnc(-c3ccc(C)c(S(=O)(=O)NC)c3)c3ccccc23)cc1	?	-22%
COc1ccc(CCNC(=O)c2ccc(Cn3c(=O)c4ccccc4n(Cc4ccccc4Cl)c3=O)cc2)cc1OC	-9%	?
CCCOc1ccc(CNC(=O)C2CCN(c3nn4c(=O)cc(C)nc4s3)CC2)cc1	-22%	-24%
O=C(Nc1ccccc1)N(Cc1ccc(F)cc1)c1ccccn1	-7%	-15%
Cc1coc2c1c(C)cc1oc(=O)c(CC(=O)NCc3ccc(Cl)cc3)c(C)c12	0%	-2%
COc1cccc(CNC(=O)c2ccc3c(c2)nc2n3CCCCC2)c1OC	23%	-14%
CN(C)C(=O)c1c(NC(=O)c2ccccc2F)sc2c1CCCC2	-14%	-8%
CCOc1ccccc1-n1nnc(-c2nc(-c3ccccc3C)no2)c1C	-4%	?
COc1ccc(CC(=O)Nc2sc3c(c2C(=O)Nc2ccc(C)cc2)CCCCC3)cc1	3%	?
COC(=O)c1cnc(NCc2ccc(F)cc2)c2ccccc12	?	1%
O=C(CCN1CCN(C(=O)OCc2cc(Cl)cc(Cl)c2)CC1)c1ccc2[nH]c(=O)oc2c1	3%	/
CCOC(=O)c1ccc(NC(=O)c2cn3c4c(ccc(Cl)c4c2=O)OC(C)C3)cc1 (stereo not drawn)	-1%	16%
COc1ccc(-c2ccc(NS(=O)(=O)c3ccc(C(C)=O)cc3)cc2)nn1	?	-5%
Cc1ccc2onc(CC(=O)N3CCN(c4ccc(Cl)cc4)CC3)c2c1	-18%	13%
Cc1ccc(NC(=O)CN2C(=O)CSc3ccc(S(=O)(=O)N(C)C)cc32)c(C)c1	-31%	?
CC1Cn2c(C(=O)NCCc3ccc(Cl)cc3)cc3cccc(c32)S1 (stereo not drawn)	?	-17%
Cc1cccn2c3c(c(=O)nc12)C(c1cccc(F)c1)CC(=O)N3 (stereo not drawn)	-7%	10%
O=C(CCCCCn1c(=O)c2sccc2n(Cc2ccc(Cl)cc2)c1=O)NCc1ccc2c(c1)OCO2	?	-21%
CCOc1ccc(NC(=O)CC2C(=O)N(c3ccc(C)cc3)C(=O)N2CCC2=CCCCC2)cc1 (stereo not drawn)	-26%	-10%
Cc1ccc(CSCc2ccc(C(=O)NCCc3ccc(Cl)cc3)o2)cc1	?	-26%
O=C(CN1C(=O)COc2ccc(S(=O)(=O)N3CCCCC3)cc21)NCc1ccc(Cl)cc1	-22%	1%
O=C(NCc1ccccc1Cl)C1=Cc2cc(Br)ccc2OC1	-12%	-45%

Screening results: PubChem, National Center for Advancing Translational Sciences (NCATS)
